From PubChem
HIV Env fusion: HIV envelope-mediated fusion inhibition. HeLa-JRFL Env/CEM21 cell fusion, luciferase. inhibition, % at 12.3 µM. hit rate 1.1% among 360,000;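 active = mean replicate inhibition score of at least 50 and every replicate individually at or above 50; inconclusive = only one of the two criteria met; inactive = mean below 50 and not all replicates reaching 50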;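 note: 0% = plate neutral controls and 100% = maraviroc near 300 nM; one replicate is shown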
CSC inhib: blocks cancer stem cells; hit rate 1.1% among 300,000; cancer stem cell-like cells viability, luminescence; AID 2717; inhibition, % at 7.5 µM;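 active = mean at 75% or more and at least half the replicates too; inconclusive = mean and replicates disagree; tested in HMLE shEcad cells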;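 note: 0% = median of negative and 100% = median of positive control wells; the first replicate is given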
PABP FP inh: blocks human PABP binding to poly(A) RNA | inhibition, % at 35 µM | hit rate 1% among 290,000 | fluorescence polarization | P11940;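 active = 50% or more with normal probe brightness, or confirmed in later tests; inconclusive = above 50% with abnormal brightness, or retests that disagree; inactive = below 50% or failed in later tests; about a fifth of its hits are not listed in these tables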;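 note: calls also rest on retests at 20 µM and on dose response follow-up; controls were probe without protein and protein plus probe with vehicle; some compounds called inactive have numbers as strong as hits; many hits fall short of the cut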
Target sequence (P11940 whole entry, looked up): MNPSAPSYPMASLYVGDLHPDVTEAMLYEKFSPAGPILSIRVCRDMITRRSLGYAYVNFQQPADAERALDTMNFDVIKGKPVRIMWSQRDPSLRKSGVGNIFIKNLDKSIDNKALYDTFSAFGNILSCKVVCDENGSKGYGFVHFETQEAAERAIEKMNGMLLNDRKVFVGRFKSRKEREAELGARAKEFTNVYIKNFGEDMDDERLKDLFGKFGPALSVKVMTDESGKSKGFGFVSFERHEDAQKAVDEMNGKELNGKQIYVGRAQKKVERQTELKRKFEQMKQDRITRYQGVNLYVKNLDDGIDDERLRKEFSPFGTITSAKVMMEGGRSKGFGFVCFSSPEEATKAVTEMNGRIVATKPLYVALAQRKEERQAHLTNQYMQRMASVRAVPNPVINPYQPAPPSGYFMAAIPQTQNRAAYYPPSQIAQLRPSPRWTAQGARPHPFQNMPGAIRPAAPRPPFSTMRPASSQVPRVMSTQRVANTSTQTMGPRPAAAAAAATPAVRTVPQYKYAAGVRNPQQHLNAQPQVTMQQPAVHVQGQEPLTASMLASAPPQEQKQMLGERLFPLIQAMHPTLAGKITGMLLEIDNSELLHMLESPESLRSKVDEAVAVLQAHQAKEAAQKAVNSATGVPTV
Rce1 inh: blocks yeast Ras-converting enzyme | yeast membranes, quenched prenylated peptide cleavage fluorescence | calls only | hit rate 0.27% among 290,000;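 active = fall in fluorescence gain of 50% or more versus controls, with final raw signal at or below 3038400; inconclusive = same 50% fall but final raw signal above 3038400; inactive = fall in fluorescence gain under 50%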;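 note: plate controls were neutral control wells for no effect and wells lacking membranes for full effect; tested at 10 µM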
Target sequence (Q03530 whole entry, looked up): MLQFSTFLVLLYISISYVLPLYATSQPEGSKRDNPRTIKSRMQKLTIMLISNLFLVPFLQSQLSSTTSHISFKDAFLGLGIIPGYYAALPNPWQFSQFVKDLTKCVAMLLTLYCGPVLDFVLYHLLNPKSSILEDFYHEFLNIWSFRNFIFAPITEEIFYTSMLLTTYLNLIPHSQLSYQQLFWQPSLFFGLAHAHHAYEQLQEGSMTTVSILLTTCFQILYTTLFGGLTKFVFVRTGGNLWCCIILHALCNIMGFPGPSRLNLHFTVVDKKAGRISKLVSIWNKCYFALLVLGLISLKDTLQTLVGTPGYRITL
eIF4H inh: inhibitors of RNA binding by human eIF4H; Q15056; eIF4H fluorescence polarization binding assay; AID 2012; hit rate 0.94% among 290,000; inhibition, % at 35 µM;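 active = 50% or more with normal probe brightness, or confirmed in later tests; inconclusive = above 50% with abnormal brightness, or retests that disagree; inactive = below 50% or failed in later tests; about a fifth of its hits are not listed in these tables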;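 note: calls also rest on retests at 20 µM and on dose response follow-up; 0% = protein and probe with vehicle and 100% = probe without protein; strong numbers were not always called active; many hits fall short of the cut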
UUG fidelity: alters start codon recognition fidelity in yeast | activity score, % at 18.7 µM | S. cerevisiae UUG-firefly luciferase reporter, luminescence/redox ratio | hit rate 0.13% among 350,000;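 active = replicate mean at a twofold rise or more, about +100% in these data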;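 note: firefly luciferase made from a UUG start codon reports start codon fidelity; reporter light over untreated wells divided by growth signal over untreated wells; some hits fall short of that in this replicate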
MT1-MMP act inh: blocks activation of human MT1-MMP | GFP/RFP ratio change, % at 20 µM | AID 651647 | HT1080 RFP-PRO-GFP cells, GFP/RFP ratio fluorescence, overnight; percent of plate control window, DMSO zero | P50281 | hit rate 0.061% among 360,000;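 active = GFP/RFP ratio change of at least 30% with cell ATP level not reduced by more than half and red fluorescence within 50% of control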; note: strong numbers were not always called active
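Assay system: HT1080 cells carrying an RFP-PRO-GFP reporter | Dosing: Single dose of 20 µM compound, 1% DMSO final | Incubation: Cells overnight before dosing, compound overnight, 37 °C, 5% CO2 | Evaluation: GFP/RFP fluorescence ratio | Control set: DMSO and RFP-L50D-GFP cell wells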
eIF4H inh retest: recorded beside eIF4H inh, whose call it bears; inhibition, %; compound at 20 µM; confirmation average;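 mean of two retest wells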
PABP FP inh retest: recorded beside PABP FP inh, whose call it bears; inhibition, %; compound at 20 µM; confirmation repeats;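 mean of two retest wells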
MT1-MMP act inh RFP: further read-out of MT1-MMP act inh, marked with its call; RFP signal change, %; measured here: RFP expression control read;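 0 = vehicle wells; hits needed this value within 50% of zero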
* marks the source's active call; other numbers are inactive results; i = inactive; u = inconclusive; x = not tested or not shown; [ ] = remark or other dose. An excerpt; count on the stated rates, not on these rows.

SMILES | HIV Env fusion | CSC inhib | PABP FP inh | Rce1 inh | eIF4H inh | UUG fidelity | MT1-MMP act inh | MT1-MMP act inh RFP | others
C/C(=C\c1ccccc1)CN1CCC(C(=O)N2CCCCC2)CC1 | -15.0 | -9.8 | -3.2 | i | 3.8 | -8.7 | 4.0 | 2.6
Cc1ccc(OCC(=O)N2CC(C)CC(C)C2)c([N+](=O)[O-])n1 (stereo not given) | -3.7 | 16.3 | x | x | x | -4.7 | -1.9 | 1.9
Cc1ccc(S(=O)(=O)Nc2nc(-c3ccc(F)cc3)cs2)cc1 | -1.2 | 41.7 | 2.8 | i | 4.1 | x | -1.9 | 0.5
CC(C)CC1NC(=O)N(CC(=O)Nc2ccc(OC(F)F)cc2)C1=O (stereo not given) | 4.4 | x | x | x | x | -10.5 | 0.1 | 1.2
CCn1c(C2CCN(S(=O)(=O)c3ccc(OC)cc3)CC2)n[nH]c1=S | 22.2 | 4.8 | -9.3 | i | 6.7 | -15.2 | 4.1 | -6.2
C=CCN=C1SCC(=O)N1S(=O)(=O)c1ccc(C)cc1 | -26.5 | 10.4 | -11.3 | i | -29.7 | -12.4 | -53.4 | 7.5
C=CCOn1c(=O)c(-c2cccs2)[n+]([O-])c2ccccc21 | -71.6 | -5.4 | 1.2 | i | 8.7 | 26.6 | -4.4 | -3.5
O=C(O)c1ccc(-c2nc(-c3ccc(Cl)cc3)cs2)cc1 | -186.1 | x | 1.7 | i | -8.0 | x | 6.0 | 0.6
O=C(CN(CC1CCCO1)C(=O)CNS(=O)(=O)c1ccc(F)cc1)NCc1ccc(F)cc1 (stereo not given) | -2.6 | -3.1 | 11.1 | i | -4.5 | -15.3 | 4.5 | 2.3
O=C(Nc1ccc(S(=O)(=O)N2CCCCCC2)cc1)c1[nH]ncc1[N+](=O)[O-] | 1.3 | 52.2 | 9.7 | i | 13.9 | -2.0 | 0.4 | -7.7
Cc1cc(C)cc(OCC(=O)OCC(=O)Nc2cc(S(=O)(=O)N3CCOCC3)ccc2Cl)c1 | -12.5 | -3.1 | x | x | x | -3.8 | 1.1 | 1.6
Cc1ccc(C(=O)NCCc2ccc(S(=O)(=O)N3CCCC3)cc2)cc1 | 13.1 | 0.2 | -1.1 | i | -4.7 | 4.3 | -6.2 | -7.2
Cc1ccc(C(=O)COC(=O)CCN2C(=O)C3C4C=CC(C5CC45)C3C2=O)cc1 (stereo not given) | 4.0 | -2.7 | x | i | x | 11.3 | 0.8 | 2.6
Cc1cc(C(=O)Nc2ccc3c(c2)CCC3)c2ccccc2n1 | x | -8.2 | 1.0 | i | 6.8 | -10.9 | -5.9 | 1.1
CC(=O)c1cc(F)ccc1OCC(=O)N1CCCc2ccccc21 | 4.2 | -11.3 | 5.8 | i | -1.8 | -8.7 | -6.1 | -3.1

Grouped by structure, the compounds so far with a carbonyl joined to an NH by a bond outside any ring.
SMILES | HIV Env fusion | CSC inhib | PABP FP inh | Rce1 inh | eIF4H inh | UUG fidelity | MT1-MMP act inh | MT1-MMP act inh RFP | others
CC(C)CC1NC(=O)N(CC(=O)Nc2ccc(OC(F)F)cc2)C1=O (stereo not given) | 4.4 | x | x | x | x | -10.5 | 0.1 | 1.2
O=C(CN(CC1CCCO1)C(=O)CNS(=O)(=O)c1ccc(F)cc1)NCc1ccc(F)cc1 (stereo not given) | -2.6 | -3.1 | 11.1 | i | -4.5 | -15.3 | 4.5 | 2.3
O=C(Nc1ccc(S(=O)(=O)N2CCCCCC2)cc1)c1[nH]ncc1[N+](=O)[O-] | 1.3 | 52.2 | 9.7 | i | 13.9 | -2.0 | 0.4 | -7.7
Cc1cc(C)cc(OCC(=O)OCC(=O)Nc2cc(S(=O)(=O)N3CCOCC3)ccc2Cl)c1 | -12.5 | -3.1 | x | x | x | -3.8 | 1.1 | 1.6
Cc1ccc(C(=O)NCCc2ccc(S(=O)(=O)N3CCCC3)cc2)cc1 | 13.1 | 0.2 | -1.1 | i | -4.7 | 4.3 | -6.2 | -7.2
Cc1cc(C(=O)Nc2ccc3c(c2)CCC3)c2ccccc2n1 | x | -8.2 | 1.0 | i | 6.8 | -10.9 | -5.9 | 1.1

The results go on:
SMILES | HIV Env fusion | CSC inhib | PABP FP inh | Rce1 inh | eIF4H inh | UUG fidelity | MT1-MMP act inh | MT1-MMP act inh RFP | others
NS(=O)(=O)c1ccc(NC(=O)COC(=O)c2c3c(nc4ccccc24)/C(=C\c2ccc4c(c2)OCO4)CCC3)cc1 | x | 93.4* | 7.8 | x | u | x | -31.2 | -11.6
COCCCN1C(=O)C(=O)/C(=C(/O)c2ccc(S(=O)(=O)N3CCCCC3)cc2)C1c1cccc(OC)c1 (stereo not given) | -5.9 | -14.6 | 6.1 | i | -4.5 | 11.1 | 1.8 | 3.6
O=C(NNC(=O)c1cccs1)c1ccc(Br)cc1 | -20.2 | -7.0 | 8.7 | i | -6.9 | x | 1.6 | 4.7
CC(=O)NCCn1c(SCc2ccc(C)cc2)nc2ccccc2c1=O | -6.6 | -0.4 | 7.6 | i | 13.2 | 9.3 | 1.5 | -0.7
C=C(C)CNC(=S)Nc1cccc2cnccc12 | x | x | 5.1 | i | -1.6 | x | -0.2 | -3.5
Cc1cccc(C)c1OCCn1nnc2ccccc21 | -1.6 | -13.1 | 3.2 | i | -15.2 | -2.6 | -2.4 | -3.4
CCCCNC(=O)Oc1cccc(N2CCCC2=O)c1 | -18.6 | -6.1 | 24.9 | i | -1.8 | -5.5 | 7.0 | 4.4
O=C(c1ccc(F)c(S(=O)(=O)N2CCOCC2)c1)N1CCc2ccccc21 | 1.9 | -5.4 | -4.5 | i | 0.5 | 12.3 | 0.1 | -2.7
CS(=O)(=O)c1ccc(Cl)c(NC(=O)CCCc2nc3ccccc3c(=O)[nH]2)c1 | 0.4 | 0.7 | x | i | x | x | 1.6 | 0.6
COc1ccc(-c2ccnc(-c3ccc(OCCCF)cc3)n2)cc1 | x | 51.1 | 4.0 | i | -7.2 | -11.7 | 5.0 | -2.8
O=C(c1ccncc1)N1CCc2ccccc2C1 | x | -18.2 | 3.3 | i | -13.2 | -8.9 | 1.3 | 4.1
COc1ccc(-c2nc3ncccc3n2O)cc1 | -1.4 | 5.6 | -4.2 | i | -9.8 | -10.2 | 3.4 | 1.8
Cc1cc(C)n(-c2ccc(C(=O)Nc3cccc([N+](=O)[O-])c3)cc2)n1 | -29.8 | 9.0 | 4.9 | i | -12.6 | x | 1.3 | -7.6
CC1(C(=O)Nc2ccc(Cl)c(Cl)c2)CCN1CCc1ccccc1 (stereo not given) | 22.2 | x | x | x | x | -7.2 | -1.1 | -0.1
COc1ccc(NC2CCCN(C(=O)CCn3cccn3)C2)cc1 (stereo not given) | 7.1 | -6.5 | -3.6 | x | -12.8 | -14.3 | -1.0 | -0.8
O=C(C[C@@H]1C=C[C@@H](NC(=O)C2CC2)[C@@H](CO)O1)NCc1ccccc1Cl | -11.5[16.7 µM] | x | x | x | x | -23.0 | -3.1 | 2.9
C=CCNC(=O)COc1cc(C)ccc1C | -6.4 | x | 8.4 | i | -4.0 | -20.0 | 3.4 | -0.8
CCOc1ccccc1NC(=O)C1CCCN(S(=O)(=O)c2c(C)[nH]c(=O)[nH]c2=O)C1 (stereo not given) | x | -1.7 | -7.4 | i | 6.0 | -0.1 | -2.4 | 2.2
COc1cccc(-c2noc(C3CCCN(C(=O)c4ccc(F)cc4)C3)n2)c1 (stereo not given) | 11.9 | -12.6 | 5.0 | i | 2.5 | 3.8 | 1.7 | -2.5
COc1ccc(C2C(C(=O)c3ccc(C)o3)=C(O)C(=O)N2c2cc(C)on2)cc1OC (stereo not given) | x | -10.2 | 6.6 | i | -8.1 | -17.0 | 3.5 | 1.9
COc1ccc(CN(Cc2cc3cc(C)ccc3[nH]c2=O)C(=O)N(C)C)cc1 | -152.8 | -6.4 | 9.2 | i | 3.9 | 1.7 | -4.9 | -5.8
CCCCN1C2CCCC1CC(NC(=O)C1CCCCC1)C2 (stereo not given) | -55.4 | 7.2 | 7.0 | i | 5.9 | -21.6 | 3.9 | 4.4
Nn1c(Cc2ccccc2F)n[nH]c1=S | -14.5 | -6.1 | -2.0 | i | -4.4 | x | 5.2 | 6.2
Cc1ccc(-c2nn(-c3ccccc3)cc2C(=O)N2CCOCC2)cc1 | -36.5 | -13.8 | 2.1 | i | -4.8 | -6.0 | 2.5 | 5.4
CCCCSc1nc(C)cc(NC(=S)Nc2ccc(OC)cc2)n1 | -64.6 | -3.3 | 7.4 | i | -4.6 | -29.9 | 1.3 | 5.4
CCn1cc(C(=O)O)c(=O)c2cnc(N3CCN(C(=S)NC(=O)c4ccc(Cl)cc4Cl)CC3)nc21 | 1.6 | x | 1.4 | i | -11.3 | -19.1 | -2.5 | 0.3
O=C(CSc1nnc(Cc2cc(=O)[nH]c(=O)[nH]2)n1-c1ccc(Cl)cc1)NC1CCCC1 | 29.7 | 1.0 | 64.6* | x | 62.4* | 0.8 | -2.5 | 6.1
Cc1cc(NC(=O)Cc2cccs2)no1 | 11.5 | -14.4 | -3.3 | x | 64.2 | -5.1 | -10.2 | 3.5 | eIF4H inh retest=3.7;PABP FP inh retest=5.3
O=C1CCC(=O)N1CCOP1(=O)COc2ccccc2OC1 | -5.2 | -7.0 | 2.0 | i | -8.5 | -22.7 | 3.6 | 10.7
O=C(C1CCN(S(=O)(=O)c2ccccc2)CC1)N(CCc1ccccc1)Cc1ccco1 | -33.9 | -4.1 | -3.5 | i | -5.3 | 11.2 | -9.3 | 0.5
O=C(Nc1cccc([N+](=O)[O-])c1)c1ccn[nH]1 | -11.6 | -5.8 | -5.4 | i | 0.9 | x | -1.9 | 0.0
COC(=O)Cn1cc(/C=N/NC(=O)COc2cccc3cccnc23)c2ccccc21 | -81.0 | 12.8 | 5.6 | i | -9.6 | x | 0.9 | -1.6
COCCn1nnnc1C(c1ccccn1)N1CCN(c2cc(C)ccc2C)CC1 (stereo not given) | -4.5 | -12.3 | 29.0 | i | -2.7 | 4.7 | 0.6 | -2.6
CCOc1ccc(OCC)c(NC(=O)C2CCCN(S(=O)(=O)c3cnc[nH]3)C2)c1 (stereo not given) | -10.8 | 7.2 | -4.1 | i | -3.3 | -22.2 | -1.9 | 3.0
COc1ccc(C=C2NC(=O)NC2=O)cc1O | 3.0 | x | x | x | x | -12.6 | -3.7 | 4.0
CCc1ccc(N=Nc2ccc(O)c3[nH]cnc23)cc1 | -60.6 | 82.5* | x | x | x | 2.8 | -104.1 | 6.4
O=C(Nc1nccs1)c1ccccc1[N+](=O)[O-] | -11.8 | 7.2 | -0.3 | i | -13.4 | x | 0.1 | 6.5
CCCCN1CC[C@H]2C=CC[C@@H](C(=O)NCc3ccc(OC)cc3)[C@H]2C1=O | 0.4 | 2.3 | x | i | x | 11.3 | 0.0 | 1.3

Arranged by heavy-atom count (low to high): three of the compounds above.
SMILES | HIV Env fusion | CSC inhib | PABP FP inh | Rce1 inh | eIF4H inh | UUG fidelity | MT1-MMP act inh | MT1-MMP act inh RFP | others
Cc1ccc(OCC(=O)N2CC(C)CC(C)C2)c([N+](=O)[O-])n1 (stereo not given) | -3.7 | 16.3 | x | x | x | -4.7 | -1.9 | 1.9
COc1ccc(NC2CCCN(C(=O)CCn3cccn3)C2)cc1 (stereo not given) | 7.1 | -6.5 | -3.6 | x | -12.8 | -14.3 | -1.0 | -0.8
O=C(C[C@@H]1C=C[C@@H](NC(=O)C2CC2)[C@@H](CO)O1)NCc1ccccc1Cl | -11.5[16.7 µM] | x | x | x | x | -23.0 | -3.1 | 2.9
